Bioassay records from PubChem BioAssay.
RanGTP-Imp inh = disruptors of Ran-importin-beta complex formation – biochemical, FRET, CFP-Ran, YFP-importin-beta, homogeneous, primary screen. cell-free CFP-Ran/YFP-importin-beta FRET ratio. inhibition, % (concentration not given with the values). 1.1% of 300,000 active. AID 2216;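 active = most replicates above 15%; inconclusive = exactly half above 15%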;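 note: 0% = DMSO wells and 100% = Ran loaded with GDP instead of GTP; wells of about 40 µL received 100 nL stock; the first replicate is given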
Vif TR-FRET = inhibitors of Vif binding to APOBEC3G peptide, primary screen, biochemical, TR-FRET, GST-Vif 1-94, biotin-A3G peptide, dose response retest (AID 1117319). TR-FRET GST-Vif / biotin-A3G peptide binding; higher % means a stronger effect; test concentration not given here; strong numbers were not always called active. inhibition, %; hits with a dose series show IC50 in µM. 0.57% of 260,000 active;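 active = above the screen mean plus three standard deviations and confirmed in dose response; inconclusive = results disagree or hit not tested in dose response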;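 note: Vif residues 1-94 fused to GST binding biotinylated APOBEC3G peptide 110-148; 0% = full assay without inhibitor and 100% = GST in place of GST-Vif; retest series ran down from 100 µM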
LANA-H2B inh = blocks KSHV LANA binding to histone H2A/H2B; Q9QR71; cell-free LANA-H2A/H2B peptide, fluorescence polarization; inhibition, % (concentration not given with the values); 0.6% of 320,000 active; AID 2629; in the data active = inhibition mostly above about 10%, no sharp cut-off; inactive = mostly below about 6.7%;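 note: stock transfer was 7.5 nL into about 10 µL; 0% = median of vehicle wells and 100% = median of positive control wells; one replicate is shown; the record names a cut of 25% in any replicate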
Calb FLC = affects C. albicans growth with fluconazole | growth inhibition, % (concentration not given with the values) | 0.57% of 300,000 active | C. albicans CaCi-2 (fluconazole-resistant clinical isolate) + fluconazole, Alamar Blue growth, 48 h | AID 1979;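 active = most replicates above 75%; inconclusive = exactly half above 75%; inactive = most below 75%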;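 note: all wells also contain fluconazole at 8 µg/ml as a sub-toxic cotreatment; 0% = median of DMSO wells and 100% = median of geldanamycin control wells; wells of about 8 µL received 7.5 nL stock; the first replicate is given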
B2AR ag = agonists of human beta-2 adrenergic receptor inducing internalization; P07550; Am2.2-beta2AR cells, FAP receptor internalization, flow cytometry; reference of the scale not given here; response, % (no concentration beside the values); 0.43% of 340,000 active; AID 504454;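 active = response above a set limit, near 3 SD of response in nonfluorescent compounds, cut at about 42% in these data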;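 note: stock transfer was 100 nL into about 11 µL; a reference agonist was the positive control; negative values mostly stem from fluorescent compounds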
HNF4A DNA FP = change in binding of human HNF4 alpha to DNA; activity change, % at 10 µM; P41235; HNF4a-FITC DNA binding, fluorescence polarization, 1 h; 0.3% of 360,000 active; AID 1224865; in the data active = activity change above about 30%, passing the limit was not always enough;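 note: controls were the assay level and a saturating level of protein; the project sought stronger binding though the title names inhibitors; some compounds called inactive have numbers as strong as hits; positive values seem to mean higher polarization but the record does not say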
Target sequence (P41235 whole entry, looked up): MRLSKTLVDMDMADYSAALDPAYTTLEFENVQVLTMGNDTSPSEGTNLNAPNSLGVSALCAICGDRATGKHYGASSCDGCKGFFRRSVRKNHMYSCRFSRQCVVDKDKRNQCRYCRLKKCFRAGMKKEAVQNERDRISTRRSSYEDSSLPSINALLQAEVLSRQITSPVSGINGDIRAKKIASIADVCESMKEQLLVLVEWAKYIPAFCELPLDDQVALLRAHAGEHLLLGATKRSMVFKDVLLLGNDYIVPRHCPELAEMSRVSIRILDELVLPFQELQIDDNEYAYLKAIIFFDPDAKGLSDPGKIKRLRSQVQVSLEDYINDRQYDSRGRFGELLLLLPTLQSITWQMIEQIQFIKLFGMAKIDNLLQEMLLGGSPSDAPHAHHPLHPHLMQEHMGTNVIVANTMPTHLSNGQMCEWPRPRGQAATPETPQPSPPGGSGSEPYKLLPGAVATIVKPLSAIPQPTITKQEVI
ALR inh = inhibitors of human sulfhydryl oxidase ALR; P55789; purified ALR, DTT oxidation, H2O2 HRP-luminol luminescence; inhibition, % (no concentration beside the values); 3.8% of 290,000 active; AID 485317;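 active = mean and each replicate at 75% or more; inconclusive = only one of the two met; inactive = neither met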;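 note: stock transfer was 7.5 nL into about 7.5 µL; 0% = neutral wells and 100% = wells with inactivated enzyme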
Target sequence (P55789 whole entry, looked up): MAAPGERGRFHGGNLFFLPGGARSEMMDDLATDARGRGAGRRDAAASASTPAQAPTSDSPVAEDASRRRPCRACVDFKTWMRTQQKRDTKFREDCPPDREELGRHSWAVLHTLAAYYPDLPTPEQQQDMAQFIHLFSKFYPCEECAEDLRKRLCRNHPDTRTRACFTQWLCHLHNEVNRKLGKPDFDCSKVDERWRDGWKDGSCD
Active calls of the source: *; ? = inconclusive; . = no result given; & = joins results of further samples. Only part of the results is shown; the hit share may differ from the screen's.

cpd	compound	RanGTP-Imp inh	Vif TR-FRET	LANA-H2B inh	Calb FLC	B2AR ag	HNF4A DNA FP	ALR inh
1	CN1CC2=CC(O)CC3Oc4c(O)ccc(c4[C@]23C)C1 (some centres not stated)	25.5*	.	1.6	3.9	2.5	4.3	-1.0
2	CC1CN=C(NCc2ccccc2)S1 (configuration not stated)	0.8	?	-1.4	-15.0	1.1	4.2	-3.1
3	O=c1[nH]c(=O)n(-c2ccc(Cl)cc2)c(O)c1C=Nc1ccc(S(=O)(=O)Nc2nccs2)cc1	-2.2	?	-1.8	-5.6	-0.9	3.9	16.6
4	Cc1[nH]c2ccc(O)cc2c1CCN	.	.	-0.8	.	-5.1	3.9	96.1*
5	CN1C2C=C(N(C(=O)c3ccc(Cl)cc3)c3ccccc3)CC1CC2 (configuration not stated)	1.2	32.8%	-1.4	-13.1	1.4	0.9	-1.8
6	COc1ncccc1C(=O)NCC(CC(=O)O)c1ccccc1 (configuration not stated)	1.1	-1.8%	-1.9	?	3.6	-1.1	-2.1
7	CCN1CCN(Cc2nnnn2C(C)(C)C)CC1	0.9	-6.7%	-1.2	-8.7	.	.	-6.6
8	C[C@]12CCC3C(CC[C@H]4C[C@@H](O)[C@H](O)C[C@]34C)C1CC[C@@H]2O (some centres not stated)	.	-2.1%	0.1	.	3.0	-1.0	-1.8
9	CN1Cc2c(c(C#N)c(N)n(C)c2=S)CC1(C)C	1.3	0.1%	10.3	0.3	-3.3	-38.9	-31.5
10	COc1ccc2c3c([nH]c2c1)C(C)=NCC3	61.7*	-4.6%	-20.0	.	-65.7	29.7	12.6
11	C=CCCC1(C(C)C)C(=O)NC(=S)NC1=O	.	-6.4%	.	.	-1.4	1.0	.
12	CCC(=NCCN1CCCCC1)c1c(O)n(C)c(=O)n(C)c1=O	-2.0	0.2%	1.5	0.1	-1.9	0.5	-1.9
13	CN(Cc1ccccc1)C(=O)CN1CCCC1=O	2.4	2.2%	8.6	-9.2	1.3	-2.3	-9.1
14	O=P(C(Cl)Cl)(N1CCCCC1)N1CCCCC1	6.2	-2.5%	0.2	17.3	-1.9	1.5	1.3
15	O=C(CNC(=O)c1cccc(Cl)c1)Nc1ccc(Br)cc1C(=O)c1ccccc1	5.7	.	-2.2	20.3	-12.0	1.8	3.5
16	O=c1cccc2n1CC1CNCC2C1 (configuration not stated)	-0.5	.	-5.1	.	9.3	-1.8	10.9
17	CN1CCN(c2ccc([N+](=O)[O-])c(N/N=C3\CN4CCC3CC4)c2)CC1	.	1.4%	0.5	-25.2	3.5	1.0	-13.8
18	CCOC(=O)COc1ccc(/C=C2\C(=O)NC(=S)N(c3ccc(OC)cc3)C2=O)cc1OC	?	9.9%	2.0	-2.2	2.0	1.6	4.4
19	COc1cc(C=C2C(=O)NC(=O)NC2=O)cc(OC)c1OC	1.9	21.1%	-2.5	10.6	1.1	1.2	8.7
20	Cc1cc(Cl)ccc1OCC(=O)N1CCN(C)CC1	4.0	21.1%	-1.2	-14.3	-2.2	0.4	-6.0
21	CCn1ccnc1CN1CCCC(C(=O)c2ccc(OC)cc2OC)C1 (configuration not stated)	3.1	-9.0%	-6.9	11.6	4.6	-1.5	-2.0
22	CC(=O)NC1CC2CCCC(C1)N2 (configuration not stated)	-0.6	-9.5%	1.7	-6.8	0.4	1.7	-6.7
23	Cc1ccc(Cc2c(C)nc3nc(SCC(=O)N4CCC5(CC4)OCCO5)nn3c2C)cc1	-1.0	-0.9%	2.7	-20.3	3.9	0.6	-5.0
24	Cc1cc(C)cc(N2C(=O)/C(=C\c3ccc(N4CCN(C)CC4)o3)C(=O)NC2=S)c1	-8.4	16.6%	-6.3	-1.2	-74.7	121.3	-2.5
25	CCNc1cc(N2CCN(C)CC2)ccc1[N+](=O)[O-]	-4.0	4.3%	1.5	0.5	-6.4	-1.5	.
26	CC(=O)OC1C(=O)OCC23CCC4(C)OC4C2OC2CC(OC(=O)C=CC=CC(=O)OCCC1C)C3(C)C21CO1 (configuration not stated)	.	-2.5%	.	.	8.2	-0.9	.
27	CN(C)c1ccc2c(c1)N=C(c1ccco1)OP2(=S)N1CCOCC1 (configuration not stated)	-136.8	-2.2%&9.2%	-0.8	-18.6	-3.1	-2.8	57.9
28	CCCN1CCC[C@@H]2Cc3nc(N)ncc3C[C@H]21	-2.0	.	8.7	.	.	.	3.0
29	CN1CCCN(C(=O)COc2cccc(C(F)(F)F)c2)CC1	2.8	.	-0.6	4.6	-18.6	7.3	-2.0
30	COC(=O)C1=C(c2ccc(OC(F)(F)F)cc2)C[C@@H]2CC[C@H]1N2C(=O)NCc1cccc2ccccc12	.	.	0.8	.	2.9	-10.2	-3.2
31	CCC1C(C#N)=C(N)Oc2c1c(=O)oc1ccccc21 (configuration not stated)	-3.5	-13.4%	0.5	-2.6	-3.0	0.5	2.7
32	CN(CC=CCN(C)P(=S)(N1CC1)N1CC1)P(=S)(N1CC1)N1CC1	.	3.5%	.	.	-6.9	0.3	.
33	CC(C)Oc1cccc(C(=O)C2CCCN(Cc3ccon3)C2)c1 (configuration not stated)	1.6	-1.7%	4.4	-1.9	-4.1	1.5	3.6
34	C=CCNC(=S)/N=C/c1c(O)[nH]c(=O)[nH]c1=O	-1.0	14.6%	-2.1	-17.9	-5.3	11.8	-3.0
35	CCCC(C)C1(CC)C(=O)NC(=Nc2ccccc2)NC1=O (configuration not stated)	8.8	-1.1%	1.0	-15.7	-1.0	4.2	-9.0
36	O=P(Nc1c(Cl)cccc1Cl)(c1ccccc1)c1nc2c(s1)CCCC2 (configuration not stated)	-3.9	-3.5%	2.3	-4.7	-1.1	-1.4	1.2
37	CC(C)Oc1ccc(CCN)cc1Cl	0.4	-5.5%	7.7	-2.7	-3.5	-2.0	-3.3
38	CCOC(=O)c1ccc(N=C(C)c2c(O)[nH]c(=O)[nH]c2=O)cc1	0.7	1.8%	2.2	8.7	-10.4	1.5	-0.4
39	CC(Cc1ccccc1)NC(=O)/C=C/c1ccc(Cl)cc1 (configuration not stated)	1.2	-5.0%	0.5	12.6	0.5	3.9	-9.7
40	O=c1[nH]c(O)c(C=Nc2ccccc2Oc2ccccc2)c(=O)[nH]1	-3.2	-5.2%	-1.0	2.7	3.3	4.2	-2.9
41	O=c1c2ccccc2nc(-c2ccco2)n1-c1nccs1	-1.1	3.1%	-3.2	2.0	-2.9	1.9	-1.9
42	C=C1C2C[C@H](O)C(C)(C)[C@@]2(O)[C@H](O)C[C@]23C[C@@](C)(O)[C@H](CC[C@H]12)[C@H]3OC(C)=O (some centres not stated)	1.7	21.8%	-0.1	-3.7	3.0	-2.3	1.3
43	COC(=O)C1=C(c2ccc(-c3ccccc3)c(F)c2)C[C@@H]2CC[C@H]1N2C(=O)NCCOc1ccccc1Cl	.	.	2.3	.	-5.2	-0.7	1.4
44	COC(=O)C1=C(c2ccc(C(C)=O)cc2)C[C@@H]2CC[C@H]1N2C(=O)N1CCCC1	.	.	-5.2	.	-10.9	3.3	-5.1
45	CC(Cc1ccccc1)NC=O (configuration not stated)	6.0	.	-6.3	-9.7	0.1	0.6	.
46	Cc1ccccc1NP(=O)(Oc1ccccc1F)Oc1ccccc1F	0.4	.	-1.9	-18.7	6.5	-1.3	-1.3
47	Cn1nccc1C(=O)N1CCC2(CC1)OCCO2	0.2	-1.4%	1.9	6.8	-3.5	0.7	8.5
48	CCN(CC)C(=O)c1ccc(NC(=O)c2cccc(S(=O)(=O)N3CCN(C)CC3)c2)cc1	-2.0	.	-0.6	2.0	3.2	-4.3	-5.9
49	COc1ccccc1CN1CCN(C(=O)COc2ccc3ccccc3c2)CC1	2.5	.	0.3	-0.3	3.1	0.3	-16.7
50	Cc1c(N=Nc2c(O)n(Cc3ccccc3)c(=O)[nH]c2=O)c(=O)n(-c2ccccc2)n1C	-0.9	.	1.1	3.8	5.5	8.2	19.4
51	COC(=O)CCCCC1SCC(NC(=O)c2ccccc2)C1Cl (configuration not stated)	3.2	5.8%	-1.8	-3.2	-7.3	-8.6	1.5
52	COCCNC(=O)N1[C@H]2CC[C@@H]1C(C(=O)OC)=C(c1ccc(-c3ccccc3)c(F)c1)C2	.	.	-4.9	.	-5.7	3.4	-4.3
53	O=C1NC(=O)N(Cc2ccc(F)cc2)C(=O)/C1=C\c1ccoc1	8.4	?	-9.1	2.7	6.9	59.7*	54.6
54	CCC(=NCCc1c[nH]c2ccccc12)c1c(O)n(C)c(=O)n(C)c1=O	2.0	12.9%	0.5	-17.4	-6.4	3.5	26.7
55	CC1N=C(c2ccccc2Cl)c2cc(Br)ccc2NC1=O (configuration not stated)	-0.1	.	-2.7	11.0	-4.3	3.9	-3.8
56	CC(N=Cc1c(O)[nH]c(=O)[nH]c1=O)c1ccccc1 (configuration not stated)	?	5.3%	-1.5	-8.3	-0.9	3.3	-4.3
57	CCC(=O)OC1(c2ccccc2)C(C)CN(C)CC1C (configuration not stated)	-0.9	10.0%	-15.6	-7.0	-5.1	0.8	0.7
58	COc1ccc(-c2nn(CCC#N)cc2C(=O)Nc2ccccc2Br)cc1	0.3	.	-0.8	6.0	-0.4	-1.9	-2.7
59	C[C@]12CCC(=O)C=C1CC[C@@H]1[C@@H]2C(=O)C[C@]2(C)C(=O)CC[C@@H]12	-0.3	0.6%	-2.2	-18.2	-0.1	-0.9	.
60	O=C(/C=C/c1ccc(Cl)cc1)NC(=S)N1C[C@H]2C[C@H](C1)c1cccc(=O)n1C2	1.7	.	-0.4	-0.8	-0.9	-0.4	3.7

Further compounds.
cpd	compound	RanGTP-Imp inh	Vif TR-FRET	LANA-H2B inh	Calb FLC	B2AR ag	HNF4A DNA FP	ALR inh
61	O=Cc1cn(Cc2ccc([N+](=O)[O-])cc2)c2ccccc12	-2.1	0.3%	-0.7	0.9	2.0	6.6	-16.1
62	O=C(CN1CCOCC1)Nc1ccc(Br)cc1C(=O)c1ccccc1	-3.5	-0.7%	-0.7	5.7	-14.4	-3.1	.
63	NP(=O)(Oc1ccccc1Cl)Oc1ccccc1Cl	5.1	-4.4%	2.2	13.5	0.4	5.6	-10.5
64	CCN1CCN(Cc2cccnc2)CC1	-4.0	.	3.6	-2.2	-7.0	-3.0	.
65	CCN(CC)c1ccc(/C=C2\C(=O)NC(=S)N(C)C2=O)o1	-60.7	-0.9%	-13.8	-1.3	7.8	176.1	36.3
66	O=C(Cn1ccc2ccccc2c1=O)NCC(=O)N1CCC2(CC1)OCCO2	1.1	-14.8%	-2.0	0.3	8.0	0.3	-1.6
67	Cc1nc2nc(SCC(=O)N3CCC4(CC3)OCCO4)nn2c(C)c1Cc1ccccc1	11.3	-1.7%	2.7	-2.0	0.1	5.1	-1.9
68	O=C(c1cc2c(s1)-c1ccccc1OC2)N1CCC2(CC1)OCCO2	-0.4	-0.8%	5.8	100.2*	-10.3	-0.5	.
69	CCOc1ccc(N=Cc2c(O)n(C(C)(C)C)c(=O)[nH]c2=O)cc1	-1.4	6.0%	1.3	9.2	-13.1	0.4	-6.4
70	CCCC[N+]1(C)C2CC(OC(=O)C(CO)c3ccccc3)CC1C1OC12 (configuration not stated)	-1.8	5.0%	-5.1	.	-8.0	2.7	.
71	CN1C(=O)/C(=C/c2ccc(N3CCCCCC3)o2)C(=O)NC1=S	-26.3	2.0%	-3.0	-2.5	-23.1	158.3	5.2
72	COc1ccc2c(c1)CC1(CN2C)C(=O)NC(=O)N(c2ccc(F)cc2)C1=O (configuration not stated)	4.0	8.4%	2.8	-3.8	10.3	1.4	-9.7
